Epigenetic derep: derepresses silenced GFP reporter in murine cells; Potency, µM (titrated, usually from 53.9 µM), without a hit: at the highest dose GFP activation, actives largely listed as activators; AID 1865; murine LDR cells, GFP reporter derepression, 30 h; 280,000 compounds, 0.2% hits; note: potency is the fitted concentration of half-maximal effect; % of control where 0% means no effect; nearly all actives have a fitted effect of over 60% in size
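In this reporter-derepression format, murine cells bearing a silenced integrated CMV-GFP locus incubate with test compound (30 h, 37 C), then are washed and imaged; fluorescent objects of 20–120 um count as induced cells.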
CBFb-RUNX1 inh: CBF-beta/RUNX1 interaction disruption. AlphaScreen CBFb-His/RUNX1-biotin binding, biochemical. Potency, µM (titrated, usually from 59.8 µM), for inactives: top-dose activity, negative = inhibition, hits mostly inhibitors. 230,000 tested, under 10 active. Q01196+Q13951; note: % of control where 0% means no effect
Target sequence (Q01196 whole entry, looked up): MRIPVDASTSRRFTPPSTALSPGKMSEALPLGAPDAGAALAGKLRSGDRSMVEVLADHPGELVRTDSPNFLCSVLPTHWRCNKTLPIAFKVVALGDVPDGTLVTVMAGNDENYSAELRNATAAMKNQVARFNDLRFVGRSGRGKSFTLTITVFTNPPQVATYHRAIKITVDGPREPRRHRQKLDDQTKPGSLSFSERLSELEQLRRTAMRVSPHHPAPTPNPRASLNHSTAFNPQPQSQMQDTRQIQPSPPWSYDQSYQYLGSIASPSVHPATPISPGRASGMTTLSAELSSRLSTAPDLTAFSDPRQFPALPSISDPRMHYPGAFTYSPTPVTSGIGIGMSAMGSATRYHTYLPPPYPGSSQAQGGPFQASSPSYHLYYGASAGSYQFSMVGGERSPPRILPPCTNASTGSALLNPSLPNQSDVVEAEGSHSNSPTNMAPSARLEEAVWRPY
Target sequence (Q13951 whole entry, looked up): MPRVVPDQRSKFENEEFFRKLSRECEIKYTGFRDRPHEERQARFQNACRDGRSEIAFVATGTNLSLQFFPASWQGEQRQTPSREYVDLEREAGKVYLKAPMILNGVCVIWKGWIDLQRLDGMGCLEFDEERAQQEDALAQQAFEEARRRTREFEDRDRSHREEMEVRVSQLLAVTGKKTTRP
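AlphaScreen proximity signal reports loss of binding between His-tagged CBF-beta and biotin-labelled RUNX1, each at 30 nM. Proteins are pre-associated for 20 minutes, compounds added for 15 minutes, then beads for 90 minutes, all at ambient temperature.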
Lamin A splicing: LMNA splicing modulation | 200,000 compounds, 0.01% hits | AID 1487 | Potency, µM (series often up to 46.1 µM), without a hit: at the top dose ratio change, negative = inhibition, hits mostly inhibitors | HeLa LMNA splicing GFP/RFP minigene ratio, 48 h; active = well fitted inhibition curve with a large enough effect in the signal ratio, with a control signal flat, not every such curve was filed as active; inconclusive = small, poorly fitted or top-dose-only effect, or effect the other way, or a change in a side signal; the % refers to the signal ratio; note: potency is the fitted concentration of half-maximal effect; % is set by controls: 0 for no effect and ±100 for the full control effect
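S3 HeLa stable clones carrying a lamin A-EGFP splicing minigene plus DsRed2 were seeded at 600 cells/well in Opti-MEM with 2% FBS, pin-dosed and incubated 48 h at 37°C. Acumen cytometry (488 nm) gave the GFP/RFP total-intensity ratio.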
KinaseGlo FLuc: Kinase-Glo luciferase inhibition (counter-screen). Kinase-Glo luciferase, ATP luminescence, 8 min. 200,000 compounds, 0.28% hits. Potency, µM (doses to about 38.3 µM), inactives show at the highest dose activity change, negative = inhibition, most hits filed as inhibitors. Q27757; note: potency is the fitted concentration of half-maximal effect; % is set by controls: 0 for no effect and ±100 for the full control effect; nearly all actives have a fitted effect of over 60% in size
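Kinase-Glo luciferase light output from ATP and luciferin was measured with 10 uM ATP, within the enzyme's linear range. Buffer: 50 mM imidazole pH 7.2, 50 mM KCl, 7 mM MgCl2, 0.01% Tween 20, 0.05% BSA; luminescence read after 8 min at ambient temperature.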
aGal spleen mod: inhibitors or activators of human alpha-galactosidase in spleen homogenate. P06280. human spleen homogenate, 4MU-alpha-Gal fluorescence, 40 min. Potency, µM (titrated, usually from 80 µM), inactives show top-dose activity change, negative = inhibition, most hits filed as inhibitors. 240,000 compounds, 0.008% hits. AID 2107;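 note: potency is the fitted concentration of half-maximal effect; 0% = enzyme with vehicle and -100% = no enzyme basal signal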
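Human spleen homogenate (1 ug) was the enzyme source, with 4-methylumbelliferyl-alpha-D-galactopyranoside (1 mM final) in pH 5.0 citrate buffer with 0.01% Tween-20. Compounds were titrated; after 40 min at 37C, NaOH/glycine stop, 4-MU fluorescence read; AC50 from Hill fits.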
IMPase Li inh: IMPase inhibition in cells with lithium potentiation. 210,000 compounds, 0.35% hits. Potency, µM (highest dose often 59.4 µM), for inactives: top-dose activity, negative = IMPase inhibition, most hits filed as inhibitors. AID 1457. CHO-M1 cells, IP1 TR-FRET (IP-One), carbachol + lithium;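 note: IP1 builds up when IMPase is blocked and the TR-FRET signal falls; potency is the fitted concentration of half-maximal effect; plate controls were basal vehicle for no effect and high inhibitor control for full effect; nearly all actives have a fitted effect of over 50% in size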
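Steps: plate 2000 CHO-M1 cells per well and culture 16–30 h; add compound and lithium; incubate 30 min, 37C; add d2-IP1 tracer and Eu cryptate anti-IP1 antibody in lysis buffer; read after 10 min at room temperature.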
An asterisk follows results filed as active; ? = inconclusive; . = not tested or not shown; [ ] = another dose, or the depositor's remark. Unless noted, calls come from the whole dose curve; as a rule, active = well fitted curve in the direction sought with a large enough effect; inconclusive = small, poorly fitted or top-dose-only effect, or another doubt; inactive = no such curve, though single readings can be large; an effect the other way counts as inactive or inconclusive. This is a subset. The share of hits here may be higher or lower than overall.

SMILES	Epigenetic derep	CBFb-RUNX1 inh	Lamin A splicing	KinaseGlo FLuc	aGal spleen mod	IMPase Li inh
CNC(=S)N(Cc1ccc(OC)cc1)Cc1cc2cc(C)ccc2[nH]c1=O	-2.5%	3%	3%[46 µM]	4%	-3%	?
O=C1CC(N2CCC(c3nc4ccccc4[nH]3)CC2)C(=O)N1Cc1ccccc1 (centres undefined)	-0.8%	4%	7%	0%	-6%	-7%[38.3 µM]
O=S(=O)(c1cccc(C(F)(F)F)c1)N1CCC(O)(c2cccnc2)CC1	-5.4%	2%	0%	.	11%	.
COc1cc(OC)cc(C(=O)OCc2cc3ccccc3[nH]c2=O)c1	1.2%	-5%	-2%	0%	5%	?
Cc1occc1C(=O)N1CCN(C(c2ccccc2)c2ccccc2)CC1	8.3%	-19%	-20%	3%	4%	65%[activator][38.3 µM]
Cn1c(SCC(=O)N(Cc2ccccc2)C(C)(C)C)nc2ccccc21	-1.0%	4%	?	19%	1%	35%[38.3 µM]
Cc1sc(NC(=O)/C=C/C(=O)O)c(C(N)=O)c1-c1ccc(C(C)(C)C)cc1	-1.2%	-4%	?	-2%	2%	7%
CC1CCN(S(=O)(=O)c2ccc(NC(=O)CN3CCN(c4ccccc4)CC3)cc2)CC1	15%	7%	-20%	1%	-6%	33%[38.3 µM]
N#Cc1cccc(Nc2c3c(nc4ccccc24)CCCC3)c1	5.7%	-2%	.	3%	4%	8%
c1ccc(-c2ccc(-c3cnc4n3CCCCC4)cc2)cc1	3.7%	-30%	?	-5%	-5%	29%[38.3 µM]
O=C(C(c1ccccc1)N1CCOCC1)N1CCOCC1 (centres undefined)	0.3%	1%	2%	-2%	6%	-16%[38.3 µM]
O=C(CSc1ccc2nnc(CCNC(=O)c3ccccc3)n2n1)Nc1ccccc1F	2.9%	0%	-10%[9.22 µM]	0%	5%	-3%
Nc1c(-c2ccc(F)cc2)cnn1C1CCS(=O)(=O)C1 (centres undefined)	-1.8%	2%	-3%	8%	3%	-8%[38.3 µM]
N#Cc1ccc(NC(=O)C2CC(c3ccc(F)cc3)=NO2)cc1 (centres undefined)	-0.9%	2%	7%	-3%	7%	-21%[38.3 µM]
O=c1c([N+](=O)[O-])c(NC2CCCCC2)c2ccccc2n1-c1ccccc1	3.0%	-1%	-9%	-3%	1%	13%
CCCN(CCC)C(=O)CSc1nc2ccccc2c(=O)n1C1CCCC1	-2.2%	13%	?	0%	-1%	21%
CCN1C(=O)C(CC(=O)Nc2ccc(F)cc2)N(CCCN2CCN(c3ccc(F)cc3)CC2)C1=S (centres undefined)	-2.4%	-9%	.	-1%	-25%	-5%
CCOC(=O)c1c(NC(=O)COC(=O)Cn2cnc3ccccc32)sc2c1CCC(C)C2 (centres undefined)	0.9%	-7%	7%	10%	2%	11%
O=c1cc(N2CCCCC2)c(-c2ccccc2)nn1Cc1ccccc1	-1.4%	-28%	?	1%	?	8%
COC(=O)c1c(NC(=O)CN2CCN(Cc3ccc4c(c3)OCO4)CC2)sc(C)c1C	2.0%	-5%	?	-4%	3%	11%[38.3 µM]
Cn1nnc2cc(C(=O)NC3CCCCC3)ccc21	1.0%	2%	-6%	2%	-6%	8%[38.3 µM]
C/C(=N\NC(=O)c1ccc(NS(=O)(=O)c2cccs2)cc1)c1ccccn1	4.1%	-5%	.	.	3%	.
CCCCCCC(c1c(C)n(C)n(-c2ccccc2)c1=O)c1c(C)n(C)n(-c2ccccc2)c1=O	2.4%	7%	-17%	-2%	-8%	-6%
Cc1cc(C(C)(C)C)oc1C(=O)N(CC(=O)NC1CCCC1)c1cccc(C(F)(F)F)c1	-4.3%	5%	-12%	2%	3%	33%[activator]
Cc1cccc(NC(=O)c2nc[nH]c2C(=O)N[C@@H](Cc2ccccc2)C(=O)OCc2ccccc2)c1	?	7%	.	.	2%	.
CCOC(=O)CSc1cc(=O)n(CC)c2ccccc12	-2.5%	-4%	3%	0%	-4%	?
Nc1ccccc1Nc1cc(-c2cccc(Cl)c2)nn1-c1ccccc1	-1.0%	-24%	?	-1%	4%	9%
COC(=O)c1sc(-c2ccc(C(C)(C)C)cc2)cc1NC(=O)CSCC(=O)O	4.2%	-15%	.	.	-17%	.
CCOC(=O)Cn1c(=O)n(C2CCCC2)c(=O)c2ccccc21	-3.1%	23%	5%	2%	-1%	21%[38.3 µM]
Fc1ccccc1COc1ccccc1/C=N/Nc1nc(N2CCCC2)nc(N2CCCC2)n1	1.0%	1%	8%	0%	3%	-2%
COc1ccc(OC)c([C@@H]2OCCC=C[C@H]2C)c1	-2.5%	2%[2.36 µM]	3%	-1%	2%	8%
Cc1cc(-c2csc(NC(=O)c3ccc(C#N)cc3)n2)c(C)n1Cc1ccco1	6.5%	-6%	?	11%	0%	14%
Cc1cc(C)c(S(=O)(=O)Nc2cccnc2)c(C)c1	0.8%	19%	5%	1%	5%	-3%[38.3 µM]
Cc1ccc(C(C(=O)NC2CCCC2)N(C(=O)Cc2cccs2)c2cccc(C)c2C)o1 (centres undefined)	1.2%	15%	-3%	1%	25%	38%[activator][38.3 µM]
COc1ccc(OC)c(C2OCCC=CC2C)c1 (centres undefined)	0.0%[10.1 µM]	8%[13.1 µM]	.	.	5%[17.5 µM]	.
Fc1ccc(Nc2nc(Oc3ccccc3F)nc(N3CCCC3)n2)cc1	-0.8%	8%	-9%	-2%	-3%	59%[activator][38.3 µM]
Cc1cc(C)nc(N2CCC(C(=O)N3CCN(c4cc(Cl)ccc4C)CC3)CC2)n1	-1.1%	5%	?	0%	3%	2%[38.3 µM]
C=CCn1c(CCNC(=O)c2cccs2)nnc1SCC(=O)Nc1cccc(F)c1	0.0%	4%	4%	-6%	-3%	26%[38.3 µM]
CCOc1ccc(NC(=S)N(CCCN2CCCC2)Cc2cccn2Cc2ccc(Cl)cc2)cc1	2.3%	-3%	.	-3%	-3%	13%
O=C(Nc1ccccc1N1CCN(C(=O)c2ccccc2)CC1)c1ccccc1Cl	-0.2%	0%	.	.	-2%	.
O=C(c1cccs1)N(Cc1nc2sc3c(c2c(=O)[nH]1)CCCC3)C1CCCC1	-1.8%	0%	?	-6%	5%	3%[38.3 µM]
c1ccc(C(c2nnnn2C2CCCCC2)N2CCc3ccccc3C2)nc1 (centres undefined)	4.0%	-9%	0%	1%	9%	18%[38.3 µM]
CCOc1cc(/C=N/NC(N)=S)cc(Br)c1OCc1ccccc1C	2.0%	10%	?	-5%	13%	60%[activator][38.3 µM]
CCCC(=O)NC(Nc1cc(C(F)(F)F)ccc1Cl)C(Cl)(Cl)Cl (centres undefined)	-1.8%	11%	-18%	.	-1%	.
CCN(CC)S(=O)(=O)c1cccc(-c2n[nH]c(=S)n2/N=C/c2ccc(OC(F)F)cc2)c1	0.0%	-4%	2%	1%	3%	-1%
CC(C(=O)N1CCOCC1)N1C(=O)c2ccccc2C1=O (centres undefined)	-0.9%	-2%	-2%	-2%	-10%	7%[38.3 µM]
O=C(Oc1cccc2cccnc12)c1ccc2c(c1)OCCO2	?	-18%	-5%	-3%	2%	40%[38.3 µM]
O=C(Nc1cccc(-c2nnc(-c3ccccc3)o2)c1)c1ccc(Br)o1	-2.0%	-1%	?	-3%	-7%	34%[activator][38.3 µM]
Cc1ccc2cc(/C=N/NC(=O)CN3CCCCC3)c(Cl)nc2c1	0.0%	-6%	-22%[46 µM]	-3%	3%	13%
Cc1ccc(C(=O)CSC2=C(C#N)C(c3ccco3)C3=C(CC(C)(C)CC3=O)N2)cc1 (centres undefined)	0.0%	-1%	?	-2%	1%	11%[38.3 µM]
CCCCCCn1c(CN2CCCCC2CC)nc2c1c(=O)n(C)c(=O)n2C (centres undefined)	0.0%	2%	-5%	-4%	-9%	18%[38.3 µM]
Cc1sc(NC(=O)c2ccccc2)c(C(c2ccccn2)N2CCN(CCO)CC2)c1C (centres undefined)	-2.1%	?	?	-3%	12%	-6%
CCCn1c(SCC(=O)Nc2ccccc2N2CCCCC2)nc2c1c(=O)n(C)c(=O)n2C	-2.1%	-2%	-7%	0%	-9%	45%[activator][38.3 µM]
C/C(CCC12CC3CC(CC(C3)C1)C2)=N\NC(N)=S	?	-5%	9%	2%	2%	-23%[38.3 µM]
O=C1Nc2c(c(=O)[nH]c(=O)n2-c2ccc(F)cc2)C1(NS(=O)(=O)c1ccccc1)C(F)(F)F (centres undefined)	-5.7%	5%	.	.	19%	.
c1ccc2c(NCC3CCCO3)nc(-c3ccncc3)nc2c1 (centres undefined)	0.8%	3%	-18%	1%	8%	-4%[38.3 µM]
Cc1nn(-c2cc(C(F)(F)F)ccc2Cl)c2nc(C(Cl)(Cl)Cl)[nH]c(=O)c12	0.1%	4%	.	.	0%	.
COc1nc(NC(C)=O)nc(C)c1Br	0.7%	-1%	4%	0%	2%	13%[38.3 µM]
COc1ccc(CNCCC(c2ccc(F)cc2)c2ccc(OC(C)C)cc2)cc1OC (centres undefined)	-1.1%	0%	60%[46 µM]	.	4%	.
Cc1cccc(-c2cc3nc4c(c(N5CCOCC5)n3n2)CCCC4)c1	0.9%	?	10%	-7%	-8%	41%[activator][38.3 µM]
CCC(C)(NC(=O)c1cccc(N2C(=O)CSC2c2ccccc2)c1)C(=O)Nc1ccccc1C (centres undefined)	0.0%	0%	-1%	-4%	8%	12%[38.3 µM]
COc1ccc(C(=O)/C=C/c2cc(C(=O)O)cc3c2OCOC3)c(O)c1	-1.1%	-5%	?	.	-2%	.
Cc1ccc(C2=NN3C(=O)c4ccccc4C3C2)cc1 (centres undefined)	?	5%	.	.	-4%	.
